Source: PubChem BioAssay (ICCB-Longwood Screening Facility, Harvard Medical School)
LANA-nucl inh: LANA-nucleosome interaction inhibition. AID 720717. FITC-LANA1-23 / chicken nucleosome fluorescence polarization; hits give low values. z-score (no concentration beside the values). 51,000 compounds, 0.3% hits;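 active = both repeat wells score below -2 in polarization z-score versus plate sample wells, excluding overly bright wells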;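 also: 100 nL library stock added to about 30 µL; numbers are from one replicate; some results filed as inactive read as strong as hits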
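System – purified chicken nucleosomes with FITC-labelled LANA N-terminal peptide (1-23) · Amount – 240 nM purified chicken nucleosomes (480 nM peptide binding sites), final · Also added – 50 nM FITC-LANA1-23 probe · Medium – TEN-BT buffer, pH 7.5 · Incubation – compound with peptide–nucleosome mix 10–45 min at room temperature · Detection – fluorescence polarization, ex 480 nm, em 535 nm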
BasE inh: blocks the Acinetobacter baumannii siderophore enzyme BasE; purified BasE, fluorescence polarization binding displacement; inhibition, % (concentration not given with the values); 84,000 compounds, 0.1% hits;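 active = both replicates above 25% with normal brightness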;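 also: 0% = negative plate control signal and 100% = positive plate control signal; stock transfer was 100 nL into about 30 µL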
* marks the source's active call; other numbers are inactive results; & = joins results of further samples. This is a subset, so the mix of outcomes need not match the whole.

`Cc1cc(/N=c2/c3nnnn3c3ccccc3n2C2(O)C(=O)NC(=O)NC2=O)n(-c2ccccc2)n1` gave BasE inh 2.1.
Screening Nc1ccc(-c2ccccc2)cc1 returned BasE inh 1.1.
CCN1C[C@]2(COC)CC[C@H](O)[C@@]34C5C[C@@H]6[C@@H](OC)C[C@@](O)(C5[C@H]6OC)[C@@](O)([C@@H](OC)C23)[C@@H]14 (some centres not stated) was read as LANA-nucl inh 0.21 and BasE inh -2.3.
Screening CN1C[C@H](C(=O)N[C@]2(C)O[C@@]3(O)[C@@H]4CCCN4C(=O)[C@H](Cc4ccccc4)N3C2=O)C=C2c3cccc4[nH]cc(c34)C[C@H]21 returned LANA-nucl inh -0.88.
`CC1(C)CC(=O)C(C=NCCN2CCN(C(=O)Cc3ccc(Cl)cc3)CC2)=C(O)C1` gave LANA-nucl inh 0.53 and BasE inh 0.9.
Screening O=C(/C=C/c1ccco1)C1C(=O)c2ccccc2C1=O returned LANA-nucl inh -0.23 and BasE inh 2.0.
For CCOC(=O)C1=C(c2ccccc2)N(CC(N)=O)C(=O)C12C(C#N)=C(N)Oc1ccccc12 (configuration not stated) the results were LANA-nucl inh -0.56 and BasE inh -1.4.
For N#CC(C#N)=Cc1sccc1Br the results were LANA-nucl inh -0.5 and BasE inh 0.5.
Screening CCOC(=O)c1c(C)n(Cc2ccccc2)c2ccc(OCC(O)CNC(C)(C)C)cc12 (configuration not stated) returned BasE inh -5.3.
Screening COc1ccc(CC#N)cc1 returned BasE inh -0.8.

Random excerpt: 4 entries already listed, in no set order.
Screening COc1ccc(CC#N)cc1 returned BasE inh -0.8.
`Cc1cc(/N=c2/c3nnnn3c3ccccc3n2C2(O)C(=O)NC(=O)NC2=O)n(-c2ccccc2)n1` gave BasE inh 2.1.
`CC1(C)CC(=O)C(C=NCCN2CCN(C(=O)Cc3ccc(Cl)cc3)CC2)=C(O)C1` gave LANA-nucl inh 0.53 and BasE inh 0.9.
CCN1C[C@]2(COC)CC[C@H](O)[C@@]34C5C[C@@H]6[C@@H](OC)C[C@@](O)(C5[C@H]6OC)[C@@](O)([C@@H](OC)C23)[C@@H]14 (some centres not stated) was read as LANA-nucl inh 0.21 and BasE inh -2.3.

Following part.
Screening COc1ccc(CC2c3cc(OC)c(OC)cc3CCN2C)cc1OC (configuration not stated) returned LANA-nucl inh 0.21 and BasE inh 0.2.
Screening COP1(OC)=NP(OC)(OC)=NP(OC)(OC)=NP(OC)(OC)=N1 returned LANA-nucl inh -0.49 and BasE inh 1.7.
`C=CC(C)C(C(=O)c1ccccc1)N(C)C` (configuration not stated) gave LANA-nucl inh 0.56 and BasE inh -1.4.
For O=C(c1ccco1)c1cn(Cc2ccc(Cl)cc2)c2ccccc12 the results were LANA-nucl inh 0.21 and BasE inh 2.0.
O=C(Cc1ccc(-c2ccccc2)cc1)N1CCN(CC(=O)N2CCCC2)CC1 was read as BasE inh -1.1.
CCn1c2ccccc2c2cc(P(=S)(OC)OC)ccc21 was read as BasE inh 4.8.
CCN(CC)C(=O)CN1CCCN(Cc2cccc(C)c2)S1(=O)=O was read as LANA-nucl inh 0.38 and BasE inh 0.9.
Screening Oc1cccc(CN2CCN(Cc3ccccc3)CC2)c1 returned LANA-nucl inh -0.87 and BasE inh 1.2.
`CC(NCc1ccccn1)C(O)c1ccccc1` (configuration not stated) gave LANA-nucl inh 0.13 and BasE inh -2.1.
`O=C(c1ccncc1)C12CN3CN(CN(C3)C1)C2` gave LANA-nucl inh 0.57 and BasE inh 1.5.
For C=CCN1CC[C@]23c4c5ccc(O)c4OC2C(=O)CC[C@@]3(O)[C@H]1C5 (some centres not stated) the results were LANA-nucl inh 0.069&-0.48 and BasE inh -0.9.
For O=P1(N2CCC(Cc3ccccc3)CC2)CC=CC1 the results were BasE inh 2.0.
For c1ccc(C2NCCc3[nH]cnc32)cc1 (configuration not stated) the results were LANA-nucl inh -0.81&-1.1 and BasE inh 2.2.
For Cc1cc(OC(=O)N(C)C)nc(-c2ccc(Cl)cc2)n1 the results were LANA-nucl inh 0.28.
Screening CC(C)Sc1nnc(OC(=O)N(C)C)n1-c1cccc(C(F)(F)F)c1 returned BasE inh 0.6.
Screening O=C(Cn1ncc2c1-c1ccccc1OC2)N1CCC2(CC1)OCCO2 returned LANA-nucl inh -1.4 and BasE inh -1.4.
For COc1ccccc1N1CCN(CCCCNC(=O)c2ccco2)CC1 the results were LANA-nucl inh -1.2 and BasE inh 0.4.
CCOC(=O)c1sc2nc3c(cc2c1N)CN(C)CC3 was read as LANA-nucl inh 0.36 and BasE inh -0.2.
For C(#CC1(N2CCOCC2)CCCCC1)c1ccccc1 the results were LANA-nucl inh -0.056 and BasE inh 3.8.
For CC1CN2CCC3=C(CCCC3)C2(C)C1 (configuration not stated) the results were LANA-nucl inh 0.044 and BasE inh 0.9.
Screening CCn1c(C)c(C(=O)O)c2cc(OC)ccc21 returned LANA-nucl inh -1.1 and BasE inh -0.3.
Screening CC(C)c1cccc(C(C)C)c1OCCNCCO returned LANA-nucl inh -0.23 and BasE inh 2.3.
Screening CN1/C(=C\P(=S)(N2CCOCC2)N2CCOCC2)C(C)(C)c2ccccc21 returned BasE inh 0.2.
Screening Cc1cc(COC(=O)c2cn(C)c3ccccc23)no1 returned BasE inh -2.7.
For Cc1c(N=Nc2c(O)[nH]c(=S)[nH]c2=O)c(=O)n(-c2ccccc2)n1C the results were BasE inh -1.5.
CCC(C)C12CN3CCN(CC(C)(C3)C1=O)C2 (configuration not stated) was read as LANA-nucl inh 1.4 and BasE inh -0.3.
C=C(C)Cc1c(C)nc(SCC(=O)c2ccc(Cl)cc2)nc1OC(=O)N(C)C was read as BasE inh 0.5.
Screening COc1ccccc1CN1CCN(Cc2ccccc2)CC1 returned BasE inh -0.6.
`CC1OC(OC2/C=C/C=C/C=C/C=C/CC/C=C/C=C/[C@H](C)[C@@H](O)[C@@H](C)[C@H](C)OC(=O)CC(O)CC(O)CC(O)CCC(O)C(O)C[C@]3(O)CC(O)C(C(=O)O)C(C2)O3)C(O)C(N)C1O` (some centres not stated) gave LANA-nucl inh 0.34 and BasE inh -1.4.
For CC(C)[C@@]1(NC(=O)[C@@H]2C[C@@H]3c4cccc5[nH]cc(c45)C[C@H]3N(C)C2)O[C@@]2(O)[C@@H]3CCCN3C(=O)[C@H](Cc3ccccc3)N2C1=O the results were LANA-nucl inh -0.27&-0.43 and BasE inh 1.4.
For O=C(O)c1[nH]c2ccc(Cl)cc2c1CC(=O)N1CCN(Cc2ccccc2)CC1 the results were LANA-nucl inh -0.14 and BasE inh -0.9.
Screening Cc1nc2ccccc2c(=O)n1-c1ccc(N)cc1 returned LANA-nucl inh -0.39 and BasE inh -0.3.
Screening C=CCN1C(=O)NC(=O)/C(=C/c2ccc(OCC(=O)O)c(OCC)c2)C1=O returned LANA-nucl inh -0.79 and BasE inh 0.5.
For Cc1ccc(P(=Nc2ccc(S(N)(=O)=O)cc2)(Oc2ccccc2)C(C)(C)C)o1 (configuration not stated) the results were BasE inh -1.1.
For Cc1ccccc1NC1=NCC(C)(C)S1 the results were BasE inh -1.8.
`Cc1c(C(=O)Nc2ccccc2)cc(-c2ccccc2)n1CCCN1CCOCC1` gave BasE inh 1.6.
Screening Cn1c(=O)c2ncnnc2n(C)c1=O returned LANA-nucl inh 0.53 and BasE inh -0.3.
Screening CCCn1ccc(C(=O)O)n1 returned LANA-nucl inh 0.73 and BasE inh -1.8.
`O=C(NCc1ccco1)N(Cc1ccc2c(c1)OCO2)C1CCN(Cc2ccccc2)CC1` gave LANA-nucl inh 0.94 and BasE inh -1.3.
For CCOC(=O)CC1=C(C(=O)OCC)C2(C(=O)N(CC(N)=O)c3ccccc32)C(C(=O)OCC)=C(N)O1 (configuration not stated) the results were LANA-nucl inh -0.079 and BasE inh 0.7.
`OCCP(c1ccccc1)c1ccccc1` gave LANA-nucl inh 0.99 and BasE inh 1.4.
`CC1CN(Cc2c(-c3ccccc3)nc3ccc(Cl)cn23)CC(C)O1` (configuration not stated) gave LANA-nucl inh 2.6.
`CCN(CC)C(=O)N[C@H]1C=C2c3cccc4[nH]cc(c34)C[C@H]2N(C)C1` gave LANA-nucl inh -1.1 and BasE inh 4.5.
`CN(C)P(=O)(OCC(F)(F)F)N(C)C` gave LANA-nucl inh -0.085 and BasE inh 2.7.
For C1CCN2CC3C(CC2C1)CN1CCCCC31 (configuration not stated) the results were LANA-nucl inh 0.37 and BasE inh -0.1.
`NCCc1ccco1` gave BasE inh 2.2.
`Cc1nc2ccccc2c(=O)n1-c1ccc(OC(F)F)cc1` gave BasE inh -0.9.
For COC1CCCCC1NC1CCCC1 (configuration not stated) the results were LANA-nucl inh 0.53 and BasE inh -2.0.
For CCCCC1(C)N2CC3(C)CN1CC(C)(C2)C3=O (configuration not stated) the results were LANA-nucl inh -0.37 and BasE inh 1.5.
CC1(C)C(C(=O)N2CCN(c3ccc(Cl)cc3)CC2)C1(C)C was read as BasE inh 0.0.
Screening Cc1nn(C)c(C)c1P(=S)(c1c(C)nn(C)c1C)N(C)C returned BasE inh 0.7.
Screening CCN1C[C@]2(COC)CC[C@H](OC)C34C5CC6[C@H](O)C5[C@](O)(C[C@@H]6OC)C(CC32)C14 (some centres not stated) returned LANA-nucl inh 0.39 and BasE inh -0.9.
`COc1ccc(-c2cn3c(n2)sc2cc(C(=O)N4CCC5(CC4)OCCO5)ccc23)cc1` gave LANA-nucl inh -0.12 and BasE inh 0.7.
Screening Oc1ccc2c3c1O[C@H]1c4[nH]c5ccccc5c4C[C@@]4(O)C(C2)N(CC2CC2)CC[C@]314 returned LANA-nucl inh 0.18.
For CC(=O)[C@H]1CC[C@H]2[C@@H]3CC[C@H]4C[C@H](O)CC[C@]4(C)[C@H]3C(=O)C[C@]12C the results were LANA-nucl inh 0.074 and BasE inh -0.9.
For CCCCc1ccc(C(=O)O)nc1 the results were LANA-nucl inh -0.33 and BasE inh -1.8.
Screening CCCCOC(=O)c1ccccc1C(=O)OCCCC returned LANA-nucl inh 0.13.
`CN1CC=C(/C=C/c2ccc(-c3ccccc3)cc2)CC1` gave LANA-nucl inh 0.076 and BasE inh -5.0.
COc1ccc(C=C2C(=O)NC(=O)NC2=O)cc1 was read as BasE inh 0.7.
O=[P+](O)c1ccc(Cl)cc1 was read as BasE inh -0.6.

Nothing new here: an excerpt of the list.
For CCCCc1ccc(C(=O)O)nc1 the results were LANA-nucl inh -0.33 and BasE inh -1.8.
Screening CCCCOC(=O)c1ccccc1C(=O)OCCCC returned LANA-nucl inh 0.13.
`CN1CC=C(/C=C/c2ccc(-c3ccccc3)cc2)CC1` gave LANA-nucl inh 0.076 and BasE inh -5.0.
COc1ccc(C=C2C(=O)NC(=O)NC2=O)cc1 was read as BasE inh 0.7.
O=[P+](O)c1ccc(Cl)cc1 was read as BasE inh -0.6.

The main list resumes, starting three compounds before the break.
`CN1CC=C(/C=C/c2ccc(-c3ccccc3)cc2)CC1` gave LANA-nucl inh 0.076 and BasE inh -5.0.
COc1ccc(C=C2C(=O)NC(=O)NC2=O)cc1 was read as BasE inh 0.7.
O=[P+](O)c1ccc(Cl)cc1 was read as BasE inh -0.6.
`CCOC(=O)C1=NN(c2ccc(C)cc2)C2c3cccc4cccc(c34)C12` (configuration not stated) gave BasE inh 0.2.
For COc1ccccc1CC(C)N (configuration not stated) the results were LANA-nucl inh -0.18 and BasE inh -5.4.
`Cc1ccc(N=C(N(C)C)P(=O)(N(C)C)N(C)C)cc1` gave BasE inh 0.5.
`COc1cc(N)c(Cl)cc1C(=O)NC1CN2CCC1CC2` (configuration not stated) gave LANA-nucl inh 0.24.
CCCCNC(=O)c1cc2cccnc2n(Cc2ccccc2)c1=O was read as LANA-nucl inh -0.83 and BasE inh 0.6.
Screening CC(C)C(=O)N1N=C(c2cccnc2)CC1(O)C(F)(F)F (configuration not stated) returned LANA-nucl inh 0.47 and BasE inh -1.3.
Screening CC12NCCC1(C)c1ccccc1N2 (configuration not stated) returned LANA-nucl inh -0.25 and BasE inh 0.6.
Screening Cc1ccc(C2C(C=C3C(=O)NC(=O)NC3=O)=C(c3cccs3)Oc3ccccc32)cc1 (configuration not stated) returned BasE inh 1.1.
`O=C1c2ccccc2C2(c3ccc(Cl)cc3)NCCN12` (configuration not stated) gave BasE inh 1.3.
For CCOC(=O)C1CN(C)CCC1=O (configuration not stated) the results were LANA-nucl inh -0.27 and BasE inh 0.9.
Screening N[C@@H]1C[C@H]1c1ccccc1 returned LANA-nucl inh 0.02 and BasE inh -3.3.
Clc1ccc(CON=C(Cn2ccnc2)c2ccc(Cl)cc2Cl)c(Cl)c1 was read as LANA-nucl inh -0.067.
O=c1c2ccccc2nc(Sc2ncccn2)n1-c1ccc(OC(F)F)cc1 was read as BasE inh 0.5.
For CSc1ccc(C=C(C#N)C#N)s1 the results were LANA-nucl inh -1.3 and BasE inh 3.1.
CC1C(c2ccccc2)=NOC(C)(C(=O)c2ccccc2)N1O (configuration not stated) was read as BasE inh 3.3.
`O=C(CCCN1CCC(n2c(=O)[nH]c3ccccc32)CC1)c1ccc(F)cc1` gave LANA-nucl inh 0.045 and BasE inh -0.8.
For CCOc1cc(N(CC)CC)ccc1C=C1C(=O)NC(=S)NC1=O the results were LANA-nucl inh -0.15 and BasE inh 0.1.
